A488 fluor: compound fluoresces in the A488 spectral region; 59,000 compounds, 0.1% hits; max dye equivalency, M; compound autofluorescence, A488 spectral region, dye equivalency; active compounds read high; active = above 10 nM dye equivalent; inconclusive = 1 to 10 nM; inactive = 1 nM or less; about half of its hits are not listed in these tables;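 also: highest value over a series up to 38 µM; compound alone in buffer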
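Autofluorescence read at ex 480/em 540 nm after 15 min RT in 100 mM Tris pH 8.0; compound signal normalized to A488 standard series on each plate, reported as dye-equivalent concentration at each test concentration.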
AID923: qHTS Assay for Allosteric/Competitive Inhibitors of Caspase-1: Spectroscopic Profiling in AFC Spectral Region | AID 923, 2007 | Potency, µM (top dose mostly 57.5 µM), without a hit: top-dose fluorescence increase, most hits filed as activators | 75,000 compounds, 1.1% hits | compound fluorescence, AFC spectral region (405/520 nm); almost no hit is shown here; active = well fitted activation curve with a large enough effect; inconclusive = small, poorly fitted or top-dose-only effect;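 also: potency is read from the fitted curve at half-maximal effect; 0% is about no effect; scaled to a free AFC standard on each plate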
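Baseline compound fluorescence (AFC region, 405 nm ex/520 nm em) taken from the intercept of kinetic reads with 50 nM caspase-1 and 5 uM Ac-WEHD-AFC; normalized to an on-plate AFC standard curve; compounds titrated up to 57 uM.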
A647 autofl: compound autofluorescence in A647 spectral region; 59,000 tested, under 10 active; AID 592; max dye-equivalent concentration, M; Compound fluorescence, A647 channel (570/671 nm), Tris buffer; active means above 1 µM dye equivalent; inconclusive means 0.1 to 1 µM; inactive means 0.1 µM or less;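 also: values scaled relative to a standard on each plate; highest value over a series up to 38 µM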
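Each compound's intrinsic fluorescence at 570 nm excitation and 671 nm emission is measured across its concentration series in 100 mM Tris, pH 8.0, after 15 min at room temperature, and reported relative to an A647 curve.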
TSHR agonist: agonists of human thyroid stimulating hormone receptor. HEK293-CNG-TSHR cells (CNG channel as cAMP sensor), membrane potential dye, cAMP. Potency, µM (titrated, usually from 57.1 µM), without a hit: at the top dose activation, actives largely listed as activators. P16473. 73,000 compounds, 0.48% hits; active = well fitted activation curve of enough size with the parental cells flat; inconclusive = any curve in the parental cells; inactive = parental cells flat and receptor cells flat or falling; also: potency is read from the fitted curve at half-maximal effect; % of control where 0% means no effect; weak receptor curves with flat parental cells got no call and are not listed
Target sequence (P16473 whole entry, looked up): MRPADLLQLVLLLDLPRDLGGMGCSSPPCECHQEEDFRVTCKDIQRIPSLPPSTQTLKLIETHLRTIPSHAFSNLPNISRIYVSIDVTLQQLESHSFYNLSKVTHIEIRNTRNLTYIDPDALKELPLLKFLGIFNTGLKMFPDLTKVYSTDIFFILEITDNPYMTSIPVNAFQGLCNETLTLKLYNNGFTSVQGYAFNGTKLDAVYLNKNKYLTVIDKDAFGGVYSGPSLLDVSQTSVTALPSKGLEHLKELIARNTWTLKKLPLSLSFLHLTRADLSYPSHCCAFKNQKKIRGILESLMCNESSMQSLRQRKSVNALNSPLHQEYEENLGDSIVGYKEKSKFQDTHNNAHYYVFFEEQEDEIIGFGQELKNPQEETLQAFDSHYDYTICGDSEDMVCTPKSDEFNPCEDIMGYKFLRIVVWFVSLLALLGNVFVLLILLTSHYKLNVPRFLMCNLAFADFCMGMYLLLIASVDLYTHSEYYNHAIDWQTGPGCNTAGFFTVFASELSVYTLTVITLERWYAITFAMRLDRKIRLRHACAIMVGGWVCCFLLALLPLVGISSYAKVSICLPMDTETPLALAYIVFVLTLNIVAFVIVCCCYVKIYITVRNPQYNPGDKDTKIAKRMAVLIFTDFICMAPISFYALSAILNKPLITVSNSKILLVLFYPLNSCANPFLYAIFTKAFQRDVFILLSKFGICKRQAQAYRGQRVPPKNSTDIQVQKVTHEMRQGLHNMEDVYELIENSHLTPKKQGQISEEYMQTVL
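cAMP rise detected as CNG-channel membrane depolarization by fluorescent dye (emission 590 nm), 30 min after compound, following 60 min dye loading containing 100 uM RO 20-1724 at room temperature. Cells: TSHR/CNG HEK 293, with parental CNG HEK 293 as control.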
Resorufin fluor: resorufin region autofluorescence | Compound fluorescence, resorufin region 547/598 nm, buffer; active compounds read high | max dye-equivalent concentration, M | 59,000 compounds, 0.04% hits | AID 588; active = above 10 nM dye equivalent; inconclusive = 1 to 10 nM; inactive = 1 nM or less; a few of its hits are not listed in these tables; also: highest value over a series up to 38 µM
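Tris 100 mM pH 8.0; compound added, 15 min RT; CCD imager read, ex 547 nm/em 598 nm; signal normalized to resorufin standard curve (six concentrations per plate) as dye-equivalent concentration.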
Starred values were filed as active, the others as inactive; i = inactive; ? = inconclusive; . = no result given; [ ] = remark or other dose. These rows are one share of the data; count on the stated rates, not on these rows.

SMILES	A488 fluor	AID923	A647 autofl	TSHR agonist	Resorufin fluor
COC(=O)c1ccc(CSc2nc(C)nc3sc(C)c(C)c23)o1	i	0.5%	4.3e-08	29%	i
CCOn1c(=O)c(=O)n(OCc2ccccc2)c2ccccc21	.	0.4%	.	3.2µM*	.
CC1=C(C(=O)OC(C)C)C(c2cccs2)N2C(=O)CCSC2=N1 (stereo not drawn)	i	-0.4%	4.1e-08	6%	i
COc1ccc(N2CCN(C(c3ccccc3OC)c3nnnn3C3CCCC3)CC2)cc1 (stereo not drawn)	i	1.4%	2.6e-08	?	i
Cn1c(N2CCOCC2)nc2c1c(=O)n(Cc1ccc(Cl)cc1)c(=O)n2C	i	.	4.2e-08	.	i
CC(=O)C1C(c2ccc(F)cc2)NC(=O)NC1(O)C(F)(F)F (stereo not drawn)	i	-1.5%	1e-09	-3%	i
COC(=O)CNc1nc(-c2cccnc2)nc2ccccc12	i	.	3.4e-08	.	i
CC(=O)O[C@H]1CC[C@]2(C)C(=CC[C@H]3[C@H]4C[C@H]5O[C@]6(CC[C@H](C)CN6)[C@H](C)[C@@H]5[C@]4(C)CC[C@@H]32)C1	i	-1.2%[11.5 µM]	1e-09	4%[11.4 µM]	i
COc1ccc(-c2nc(CS(=O)CC(=O)NCc3ccco3)c(C)o2)cc1OC (stereo not drawn)	.	-1.9%	.	0%	.
O=C(c1ccc(F)cc1)N1C2CCC1CC(O)(c1ccccc1F)C2 (stereo not drawn)	i	0.7%	5e-08	14%	i
O=C(Nc1cccnc1)c1ccc(NC(=O)c2ccco2)cc1	i	0.7%	1e-09	-3%	i
CCc1nnc(NS(=O)(=O)c2ccc(N3C(=O)C4CC=C(Cl)CC4C3=O)cc2)s1 (stereo not drawn)	i	3.1%	5.2e-08	-2%	i
Cc1noc(/C=C/N(C)C)c1S(=O)(=O)N1CCCC(C(=O)NCc2cccs2)C1 (stereo not drawn)	.	4.2%	.	14%	.
CN(C1CCCCC1)S(=O)(=O)c1ccc(Cl)c(C(=O)O)c1	i	-0.5%	3.4e-08	4%	i
CC(C)(C)n1ncc2c(=O)n(CC(=O)NC3CCCCC3)cnc21	i	-0.6%	7.7e-09	1%	i
CC(=O)c1sc2ccccc2c1OC(=O)c1ccco1	.	1.4%	.	6%	.
Cc1cc(NC(=O)CCCS(=O)(=O)c2nc(-c3cccs3)cc(C(F)(F)F)n2)no1	i	0.4%	1e-09	10%	i
CCCn1cnc2c(c1=O)c1nc3ccccc3nc1n2CCc1ccccc1	i	1.6%	1.1e-09	?	i
CCOC(=O)c1c(C)c(C(=O)NCc2ccccn2)c(C)n1CC	i	1.3%	8.5e-09	4%[11.4 µM]	i
O=C1COc2ccc(C(=O)c3ccccc3)cc2CN1	i	-0.7%	7e-09	3%	i
Cc1sc2nc(CN(Cc3cccs3)C(=O)C3CC3)[nH]c(=O)c2c1C	i	-0.7%	2.8e-08	?	i
Cc1nn(-c2ccc(F)cc2)c2c1cc(C#N)c1nc3ccccc3n12	i	7.3%	5.7e-08	?	i
CC1(C)CC(c2csc(N)n2)CCO1 (stereo not drawn)	i	2.4%	1.1e-09	3%	i
CN(C)Cc1ccccc1	.	3.1%	.	?	.
CCCn1c(N)c(N(C)C)c(=O)n(CC(=O)Nc2ccc(OC(F)(F)F)cc2)c1=O	i	0.3%	3.2e-09	2%	i

Looked up above.
`CN(C)Cc1ccccc1` in AID923 → 3.1%
`O=C1COc2ccc(C(=O)c3ccccc3)cc2CN1` in AID923 → -0.7%
`CCc1nnc(NS(=O)(=O)c2ccc(N3C(=O)C4CC=C(Cl)CC4C3=O)cc2)s1` (stereo not drawn) in AID923 → 3.1%

Following part.
SMILES	A488 fluor	AID923	A647 autofl	TSHR agonist	Resorufin fluor
CC(C)c1[nH]nc2c1C1(CCN(Cc3ccccc3)CC1)C(C#N)=C(N)O2	i	14%	8.9e-09	3%[11.4 µM]	i
COC(=O)COc1ccc(S(=O)(=O)Nc2ccc(NC(C)=O)cc2)cc1C	i	-1.3%	1e-09	11%	i
CC(C)CN1CN(S(=O)(=O)c2cccs2)c2nc3ccccc3nc21	i	-1.3%	6.1e-09	?	i
COc1cccc(Nc2ncnc3c2cnn3C)c1	i	0.8%	1.5e-08	-2%	i
COc1ccc(-n2c(=O)cc(N3CC(C)OC(C)C3)[nH]c2=O)cc1 (stereo not drawn)	i	-1.0%	4.2e-09	6%	i
Cc1ccc(NCc2nnc(SCC(=O)OC3CCCCC3)o2)c(C)c1	i	0.3%	1.5e-09	0%	i
Cc1c(C(=O)O)sc2ncn(C)c(=O)c12	i	0.1%	1.6e-08	-1%	i
OC(COc1ccc2ccccc2c1)CN1CCCC1 (stereo not drawn)	i	0.8%	1e-09	12%	i
COCCNc1ncnc2ccc(-c3ccoc3)cc12	i	14%	3.6e-08	2%	i
COCCN1C(=O)c2oc3ccccc3c(=O)c2C1c1ccc(OC)c(OC)c1 (stereo not drawn)	.	-0.1%	.	-1%	.
COc1cc2c(=O)n(CC3CCCO3)c(=O)n(CC(=O)Nc3cccc(Cl)c3)c2cc1OC (stereo not drawn)	i	-1.0%	3.8e-09	10%[11.4 µM]	i
Cc1nc(N)sc1Cc1ccc2c(c1)OCO2	i	-0.5%	1e-09	4%	i
Cc1cc(NC(=O)C(C)(C)C)no1	i	0.2%	6.1e-09	4%	i
O=C(c1ccc(Br)o1)N1CCN(c2ccccc2F)CC1	i	-1.5%	5.6e-09	?	i
CCCOc1ccc(-c2nnn(CC(=O)Nc3cccc(C(=O)OC)c3)n2)cc1	i	-0.5%	1e-09	-6%	i
CCCn1c(=O)c2ccccc2n2c(SCc3nc4ccccc4s3)nnc12	i	-0.1%	2.2e-08	?	i
CCOC(=O)Cc1nn(C)c(=O)c2ccccc12	i	-2.2%	1e-09	-1%	i
CSc1ccc(S(=O)(=O)Nc2ccc(NC(C)=O)cc2)cc1	i	-0.4%	2.5e-09	2%	i
CCOC(=O)c1ccccc1NC(=O)c1ccccc1NS(C)(=O)=O	i	0.8%	8.3e-08	?	i
CCOc1ccc(N2CC(C(=O)Nc3ccc(F)cc3F)CC2=O)cc1 (stereo not drawn)	i	0.4%	2.4e-08	-6%	i
Cc1cc(C(=O)CSc2nnc(-c3ccco3)o2)c(C)n1-c1ccc2c(c1)OCCO2	i	-0.1%	1e-09	?	i
CCN1C(=O)c2ccccc2S(=O)c2ccc(C(=O)N3CCN(C(=O)c4ccco4)CC3)cc21 (stereo not drawn)	.	3.8%	.	7%	.
Cc1ccc(N2CC(C)Cn3c2nc2c3c(=O)n(CC(=O)OCc3ccccc3)c(=O)n2C)cc1C (stereo not drawn)	i	-1.5%	9.6e-09	-10%	i
O=S(=O)(NCCCCCCc1ccccc1)c1cccc2c(Cl)cccc12	.	1.7%	.	6%	.
COC(=O)c1ccc(NC(=O)Cc2ccccc2)cc1	i	1.6%	1e-09	-4%	i

Carrying on:
SMILES	A488 fluor	AID923	A647 autofl	TSHR agonist	Resorufin fluor
Cc1cccc2cc(CN(Cc3ccco3)C(=O)c3cccs3)c(=O)[nH]c12	i	0.8%	4e-08	.	i
CCOC(=O)CNC(=O)c1cn(CC)c(=O)c2cc(OC)c(OC)cc12	i	0.3%	2.2e-08	-1%	i
O=C(COc1nc2ccccc2nc1N1CCOCC1)N1CCc2ccccc21	i	-0.8%	1.6e-08	?	i
COc1ccc(NC2CS(=O)(=O)CC2NCc2ccco2)cc1 (stereo not drawn)	i	-1.8%	1.9e-08	0%	i
CCOc1ccccc1NC(=O)c1ccc2nccnc2c1	i	-1.2%	1.4e-08	26%	i
Cc1ccc(N2CC(C(=O)NCc3ccccn3)CC2=O)cc1 (stereo not drawn)	i	0.6%	1e-09	-7%	i
O=C(CCC1COc2ccccc2O1)N1CCCC1 (stereo not drawn)	i	0.9%	1e-09	-7%	i
CN(C)C(=O)c1ccc(-c2ccc3ncnc(NCCN4CCOCC4)c3c2)cc1	i	0.2%	2.6e-08	1%	i
C=CCOC(=O)c1sc(NC(=O)c2ccco2)nc1C	.	3.1%	.	-3%	.
OC(c1ccc2c(c1)OCO2)c1nccc2ccccc12 (stereo not drawn)	i	-0.2%	9.2e-09	16%	i
CCc1ccc(N2C(=O)C3ON(c4ccccc4)C(c4ccco4)C3C2=O)cc1 (stereo not drawn)	i	1.6%	2.1e-09	25%	i
O=C(c1ccncc1)N1CCC2(CCCN(c3ccccc3)C2)CC1	i	-2.6%	1.9e-08	10%	i
N#CC1=C(N)Oc2c(oc(CO)cc2=O)C1c1cccs1 (stereo not drawn)	i	5.3%	1.7e-09	-1%	i
Cc1ccc(-c2nc(-c3ccccc3)no2)c(Cl)c1	.	1.4%	.	?	.
O=C(CCC(=O)OCC(=O)c1ccccc1)NC1CCCCC1	.	-0.5%	.	-4%	.
O=C(O)CCCNCc1ccccc1F	i	0.2%	2.1e-09	-2%	i
CCOC(=O)c1ccc(NC(=O)CN2CCc3ccccc3C2)cc1	i	2.3%	4.4e-08	?	i
COC(=O)c1[nH]c2cc(OC)ccc2c1NC(=O)CN1CCOCC1	i	1.7%	3.7e-08	-6%	i
Cc1noc(C)c1S(=O)(=O)N1CCC(C(=O)N(C)Cc2ccccc2)CC1	i	-1.1%	1e-09	.	i
C=CCc1ccccc1OCC(O)Cn1ccnc1C (stereo not drawn)	.	1.1%	.	9%[11.4 µM]	.
c1nc(NC2CCNCC2)c2cc(-c3ccoc3)ccc2n1	i	2.5%	2.2e-08	?	i
CC1(C)Cc2ccccc2-c2nnc(SCC(=O)N3CCN(c4ccccc4)CC3)n21	i	2.4%	4.6e-09	.	i
CSc1oc(-c2ccco2)nc1S(=O)(=O)c1ccc(Br)cc1	.	2.1%	.	5%[11.4 µM]	.
COCCSc1nnc(NS(=O)(=O)Cc2ccccc2)s1	i	0.8%	1e-09	0%	i
CN(CC(=O)NCc1cccc(F)c1)C(=O)c1ccco1	i	0.7%	2.8e-08	-2%	i

Complete entries from above.
O=C(CCC(=O)OCC(=O)c1ccccc1)NC1CCCCC1 is entered as A488 fluor = .; AID923 = -0.5%; A647 autofl = .; TSHR agonist = -4%; Resorufin fluor = .
C=CCOC(=O)c1sc(NC(=O)c2ccco2)nc1C is entered as A488 fluor = .; AID923 = 3.1%; A647 autofl = .; TSHR agonist = -3%; Resorufin fluor = .

Carrying on.
SMILES	A488 fluor	AID923	A647 autofl	TSHR agonist	Resorufin fluor
CN(C)CCN(Cc1ccccc1)c1ccccn1	i	-1.2%	7.1e-09	.	i
CC[C@H]1C2=C3C(CC[C@H]4C(OCc5ccc(F)cc5C(F)(F)F)OC[C@](C)([C@@H]34)N(C(=O)OC(C)(C)C)C2)C(COC(C)=O)C1COC(C)=O (stereo partly drawn)	.	-0.1%	.	24%	.
Cc1cccc(-c2nc(CSCC(=O)N3CCN(Cc4ccc5c(c4)OCO5)CC3)c(C)o2)c1	i	-0.3%	1.9e-08	?	i
N#Cc1cnc(SCC(=O)c2ccccc2)nc1N	i	-1.8%	4.5e-08	-6%	i
Cc1ccc2c(Cl)cc(Cl)c(OCC(=O)NC(=O)NCc3ccco3)c2n1	i	-0.2%	7.5e-09	10%	i
CCOC(=O)c1cn(CC)c2cc(N3CCSCC3)c(F)cc2c1=O	i	1.7%	5.6e-09	-4%	i
O=S(=O)(CCN(CCS(=O)(=O)C(F)(F)F)CC1CCCO1)C(F)(F)F (stereo not drawn)	i	0.4%	1.1e-08	5%	i

Another view of some results above:
mol,A488 fluor,AID923,A647 autofl,TSHR agonist,Resorufin fluor
Cc1ccc2c(Cl)cc(Cl)c(OCC(=O)NC(=O)NCc3ccco3)c2n1,i,-0.2%,7.5e-09,10%,i
CCOC(=O)c1cn(CC)c2cc(N3CCSCC3)c(F)cc2c1=O,i,1.7%,5.6e-09,-4%,i

Screens from PubChem.
